From PubChem BioAssay
VACV mCherry inh: qHTS for Stage-Specific Inhibitors of Vaccinia Orthopoxvirus: mCherry Reporter Primary qHTS; Vaccinia virus mCherry reporter infection, fluorescence; about a quarter of the inactives have no number; Potency, µM (doses to about 36.5 µM), for inactives: at the top dose activity change, negative = inhibition, actives largely listed as inhibitors; 310,000 tested, 0.63% active; AID 720579, 2013; active = well fitted inhibition curve with a large enough effect; inconclusive = small, poorly fitted or top-dose-only effect; inactive = no such curve, though single readings can be large or run the other way; tested in A549 cells; also: nearly all actives have a fitted effect of over 35% in size; inactives centre near -10
VACV Venus inh: qHTS for Stage-Specific Inhibitors of Vaccinia Orthopoxvirus: Venus Reporter Primary qHTS; AID 720580, 2013; 330,000 tested, 0.46% active; Potency, µM (top dose mostly 36.5 µM), for inactives: top-dose activity change, negative = inhibition, most hits filed as inhibitors; Vaccinia virus Venus reporter expression, fluorescence; active means well fitted inhibition curve with a large enough effect; inconclusive means small, poorly fitted or top-dose-only effect; inactive means no such curve, though single readings can be large or run the other way; tested in A549 cells; also: nearly all actives have a fitted effect of over 30% in size; inactives centre near -10
An asterisk follows results filed as active; i = inactive; ? = inconclusive; nt = no result given; & = joins results of further samples; [ ] = remark or other dose. % is scaled to controls: 0 for no effect and ±100 for the full control effect; potency is read from the fitted curve at half-maximal effect.

The line under a structure holds: VACV Venus inh	VACV mCherry inh
#1 CC(C)(C)NC(=O)CN(C(=O)CNC(=O)c1cccs1)c1ccc2c(c1)OCCO2
  -10.5%	-4.4%
#2 Cc1ccc(NC(=O)CNc2cccc(S(=O)(=O)N3CCOCC3)c2)cc1F
  -18.8%	-26.0%
#3 COc1cc(NC(=O)CSc2nc3cc(C)ccc3cc2C)c(C(=O)O)cc1OC
  -7.0%	-10.7%
#4 COc1ccc(Cl)cc1NC(=O)CN1CCc2ccccc21
  13.1%	?
#5 CC(NC(=O)c1cnn2c1NC(=C1CC1)C=C2C(F)F)c1ccncc1 (stereo not drawn)
  -19.4%	-4.7%
#6 COc1ccc(CCN(C)C(=O)CCNC(=O)c2ccc(Br)cc2)cc1OC
  -10.7%	-4.8%
#7 Cc1ccc(C)c(NC(=S)NCCCN2CCOCC2)c1
  -6.7%	-6.6%
#8 O=C(N/N=C/c1c(O)n(C2CC2)c(=S)[nH]c1=O)c1ccccc1O
  -18.5%	-19.7%
#9 O=C(/C=C/c1ccco1)NC(=S)Nc1ccccc1O
  -11.4%	-12.7%
#10 Cc1ccc(S(=O)(=O)N(C)CC(=O)O/N=C(\N)c2ccccn2)cc1
  -15.5%	-13.0%[1.46 µM]
#11 COc1cccc(-n2cc(C(=O)Nc3cccc(C(F)(F)F)c3)c3ccccc3c2=O)c1
  -5.6%	-13.6%
#12 O=C(CCC(=O)N1Cc2ccccc2Oc2ncccc21)Nc1ccc(Cl)cc1
  -14.4%	-9.4%
#13 CC(=O)N1N=C(c2ccc(C)o2)CC1c1ccc(F)cc1 (stereo not drawn)
  -18.3%	i
#14 Cc1ccn2c(=O)nc(SCC(=O)N3N=C(c4cccs4)CC3c3ccc(F)cc3)nc2c1 (stereo not drawn)
  -23.7%	-27.0%
#15 COc1ccccc1OC(C)C(=O)N1CCC(Cc2ccccc2)CC1 (stereo not drawn)
  5.3%	-24.3%
#16 NC(=O)NC(=O)CN1c2cccc3cccc(c23)S1(=O)=O
  -10.1%	-24.0%
#17 COc1cccc(NC(=O)c2sc3nc(N4CCOCC4)c4c(c3c2N)CC(C)(C)OC4)c1
  -28.8%	?
#18 O=c1c2c(nc3n1CCCCC3)-c1ccccc1CC21CCCCC1
  -7.3%	-13.9%
#19 Cc1ccc2ncnc(NCc3ccco3)c2c1
  -26.8%	16.7%
#20 COc1cc(CN2CC(C)CC(C)C2)cc([N+](=O)[O-])c1O (stereo not drawn)
  -1.0%	-4.0%
#21 Cc1onc(C(=O)Nc2ccc(OC(F)(F)F)cc2)c1[N+](=O)[O-]
  -9.7%[7.34 µM]	-3.3%[7.34 µM]
#22 COc1ccc(N(C(=O)c2snc(C(N)=O)c2N)C(C(=O)NCc2ccccc2)c2ccc(F)cc2)c(OC)c1 (stereo not drawn)
  -20.3%	-22.4%
#23 CCOc1ccccc1NC(=O)N1CCC(c2nc3ccccc3[nH]2)CC1
  -9.3%	-20.2%
#24 CS(=O)(=O)CCC(C(=O)OCc1ccc(Br)cc1)N1C(=O)c2ccccc2C1=O (stereo not drawn)
  0.8%	-10.0%
#25 O=C(Nc1ccc(S(=O)(=O)N2CCOCC2)cc1)C1CCN(S(=O)(=O)c2ccccc2)CC1
  -26.7%	-6.3%
#26 CCn1c(SCC(=O)OC2CCCCC2)nc2ccccc2c1=O
  -7.2%	-12.2%
#27 C=CCN1C(=O)/C(=C\C=C2\N(C)c3ccccc3C2(C)C)SC1=S
  59.0%[activator]	-12.7%
#28 ClC(CCN1CCN(Cc2ccccc2)CC1)c1ccccc1 (stereo not drawn)
  -2.5%	i
#29 Cc1ccc(C)c(N2CCN(C(=O)C3CCN(S(=O)(=O)c4ccc5[nH]c(=O)oc5c4)CC3)CC2)c1
  -15.8%	-12.8%
#30 O=C(CN(C(=O)c1csnn1)c1ccccc1Cl)NCCc1ccccc1
  0.0%	-1.3%
#31 COc1ccc(CNCc2ccc3c(c2)n(C)c(=O)n3C)cc1
  -10.1%	-18.7%
#32 C=CCn1c(CNC(=O)c2ccccc2F)nnc1SCC(=O)NC(C)c1ccccc1 (stereo not drawn)
  -0.3%	-4.6%
#33 Cc1ccc(S(=O)(=O)N2CCC(C(=O)Nc3ccc4c(c3)COC4=O)CC2)cc1
  -12.8%	-23.8%
#34 Cc1ccccc1NC(=O)/C(C#N)=C/c1ccc(Cl)cc1Cl
  10.2%	-3.2%
#35 COc1ccc(C(=O)Nc2nc(-c3ccc([N+](=O)[O-])cc3)c(-c3ccc(OC)cc3)s2)cc1
  -1.8%	-14.3%
#36 Cc1ccc(OCC(=O)N2c3ccccc3NC(=O)C2(C)C)c([N+](=O)[O-])n1
  0.7%	-4.3%
#37 CCc1ccc(C(CC(=O)c2ccc(Cl)cc2)C(=O)O)cc1 (stereo not drawn)
  -14.5%	-12.8%
#38 Cc1cccc(C(=O)NCC2CCCO2)c1 (stereo not drawn)
  -5.4%	nt
#39 CC(C)(C)C(=O)Cn1c[n+](N)cn1
  -18.8%	nt
#40 CCOC(=O)c1sc(/N=C/c2ccc(O)cc2O)cc1C
  -15.3%	-25.2%
#41 O=C(Nc1nnc(-c2ccc3c(c2)CCCC3)o1)c1ccccc1Cl
  -29.0%	?
#42 CCc1nc2ccccc2n1CC1CC1(Cl)Cl (stereo not drawn)
  -4.4%	-3.0%
#43 CCCCCCOc1ccc(C(=O)O)cc1C#N
  -2.2%	-11.5%
#44 Cc1ccc(Sc2ccc(N3CCC(C(=O)Nc4ccc(C)c(F)c4)CC3)nn2)cc1
  4.2%	16.6%
#45 CSc1nc(-c2ccccc2)nc2c1COC(C)(C)C2
  -18.5%	i
#46 COc1cc(C=NNC(=O)c2cccnc2)ccc1OC(=O)c1ccccc1F
  -13.0%	i
#47 Cc1sc2ncn(CC(=O)Nc3cccc(C(F)(F)F)c3)c(=O)c2c1S(=O)(=O)N1CCC(C)CC1
  ?	-28.5%
#48 Cc1ccc(CN(Cc2ccco2)C(=O)COc2c(C)cc(C)cc2C)cc1
  -3.5%	-6.8%
#49 Cc1ccc(C)c(N2CN(Cc3cccnc3)CNC2=S)c1
  -0.7%	-17.2%
#50 CCC1CN(C(=O)N2CCC(C(=O)NCc3ccc(OC)cc3OC)CC2)c2cc(C)ccc2O1 (stereo not drawn)
  -9.6%	-2.6%
#51 CN(C)c1cccc(C(=O)NNC(=O)CN2C(=O)C3CC=CCC3C2=O)c1 (stereo not drawn)
  6.5%	-20.9%
#52 c1ccc(-n2nnc(-c3cccnc3)n2)cc1
  -21.4%	i
#53 CC1CN(C(=O)c2cc3cc([N+](=O)[O-])ccc3s2)CC(C)O1 (stereo not drawn)
  -14.2%	-3.1%
#54 CC(O)CNc1nc2ccccc2n1CC(=O)NCCc1ccc(Cl)cc1 (stereo not drawn)
  -11.0%	nt
#55 CC(=O)N1CCCc2ccccc21
  -7.1%	-3.8%
#56 CC(=O)c1cccc(NC(=O)N2CCC(NC(=O)C34CC5CC(CC(C5)C3)C4)CC2)c1
  -7.8%	-11.1%
#57 Cc1cc(C(=O)Nc2cccc(C)c2C)c2c(C)nn(-c3cccc(F)c3)c2n1
  -13.9%	-14.7%
#58 Cc1cc(OCc2cc(C(=O)NCc3csc(C(C)C)n3)no2)cc(C)c1Cl
  -26.3%	-18.8%
#59 CNC(=O)c1ccccc1NC(=O)c1cccc(S(=O)(=O)N2CCC(C)CC2)c1
  ?	i[1.46 µM]
#60 O=C(NNC(=O)c1cc(-c2ccco2)nc2ccccc12)c1ccccc1
  6.3%	i

(list continues)
The line under a structure holds: VACV Venus inh	VACV mCherry inh
#61 O=C(C[n+]1c2ccccc2cc2ccccc21)c1ccc(F)cc1
  2.9%	29.1%
#62 Cc1[nH]nc2c1C(c1ccc3c(c1)OCO3)C(C#N)=C(N)O2 (stereo not drawn)
  -12.7%	-25.1%
#63 CC(C)n1cc(/C=C/c2cc[n+](C)cc2)c2ccccc21
  125.9%[activator]	?
#64 O=C(/C=C/c1ccc(F)cc1)N1CCN(S(=O)(=O)/C=C/c2ccccc2)CC1
  -1.8%	-10.6%
#65 CC1CCN(CCNC(=O)C2CCCN(S(=O)(=O)c3cccc4nsnc34)C2)CC1 (stereo not drawn)
  -9.4%	-25.4%
#66 CCn1c(SC)nnc1-c1sc2cc(Cl)ccc2c1Cl
  -27.7%	nt
#67 Cc1ccc(S(=O)(=O)O/N=C2\CCCc3ccccc32)cc1
  -9.1%	-8.4%
#68 COc1ccccc1CNC(=O)CCn1c(=O)c2ccccc2n(CC(=O)Nc2ccc(Br)cc2F)c1=O
  -22.8%	-18.4%
#69 CCc1noc(C)c1C(=O)N1CCCC(N2CCN(c3ccccc3F)CC2)C1 (stereo not drawn)
  -18.7%	-16.3%
#70 COc1cccc(OCC(O)CN2CCN(c3ncccn3)CC2)c1 (stereo not drawn)
  -5.7%	-17.9%
#71 CC1CCCC(C)N1C(=O)Cn1c(=O)sc2ccccc21 (stereo not drawn)
  5.9%	-4.7%
#72 COc1cc(C(=O)N(C)Cc2cccc(OC)c2OC)ccc1OCC(=O)Nc1cccc(C(F)(F)F)c1
  -25.7%	?
#73 CC(C)(C)OC(=O)N1CCC(c2c(C(=O)N3CCN(C(=O)c4ccco4)CC3)cnn2-c2cccc(Cl)c2)CC1
  -16.7%[7.34 µM]	-6.4%
#74 C[C@@]12CCC(O)C[C@H]1CCc1ccccc12 (stereo partly drawn)
  1.3%	0.7%
#75 CCOc1ccccc1-n1ccn(CC(=O)Nc2ccc(Br)cc2F)c(=O)c1=O
  -25.1%	-15.6%
#76 Cc1cc(C)cc(N2C(N)=NC(N)=NC2c2cccc(Cl)c2)c1 (stereo not drawn)
  -17.6%	-26.8%
#77 CC(=O)OC1CCC2(C)C3CC(=O)C4(C)C(CC5OC6(CCC(C)CO6)C(C)C54)C3CC[C@H]2C1 (stereo partly drawn)
  -9.1%	-7.6%
#78 CCCc1nn2c(=O)cc(COC(=O)c3cccc(NC(=O)CCc4ccccc4)c3)nc2s1
  -5.9%	i
#79 CCOc1cccc(C(=O)NNC(=O)C2C3C=CC(C3)C2C(=O)O)c1 (stereo not drawn)
  -7.5%	i
#80 Cc1ccc(Cn2nc(C)c(NC(=O)c3cc(C)no3)c2C)cc1
  -11.1%	i
#81 C=C(C)CN1C(=O)C(O)(CC(=O)c2ccc3c(c2)OCCO3)c2ccccc21 (stereo not drawn)
  -18.3%	nt
#82 Cc1cc(C)c2sc(NNC(=O)c3ccc(S(=O)(=O)N4CCc5ccccc5C4)cc3)nc2c1
  7.94µM*	4.47µM*
#83 O=C(CSc1nnc(-c2cccnc2)n1Cc1ccccc1)NCc1ccco1
  -0.2%	-10.6%
#84 Cc1ccc(OCc2ccc(-c3nc(C#N)c(N4CCC(C)CC4)o3)o2)cc1
  -6.6%	-4.0%
#85 CCN(CC)c1nc2c(S(=O)(=O)c3ccc(C)cc3)nnn2c2ccsc12
  -21.6%	-11.3%
#86 CC(=O)Nc1ccc(S(=O)(=O)N(C)CC(=O)OCC(=O)N2CCCCC2)cc1
  -6.1%	i
#87 CCCCC1(C)OC(=O)C(=Cc2c[nH]c3ccccc23)C(=O)O1 (stereo not drawn)
  -3.6%	-0.8%
#88 CCOC(=O)c1ccc(N2C(=O)CC(N3CCC(C#N)(c4ccccc4)CC3)C2=O)cc1 (stereo not drawn)
  -10.0%	i
#89 CC(C)(C)NC(=O)C(c1ccc(-c2ccccc2)cc1)N(C[C@H]1CC[C@@H]([C@@H]2CC[C@H](CO)O2)O1)C(=O)c1ccc2ccccc2c1 (stereo partly drawn)
  -9.9%	-7.0%
#90 O=C(CSc1nc2ccc([N+](=O)[O-])cc2s1)c1ccc2ccccc2c1
  ?	-23.2%
#91 NS(=O)(=O)c1ccc(CCNC(=O)CCNS(=O)(=O)c2ccccc2C(F)(F)F)cc1
  -7.3%	i
#92 C[N+]12CCC(CC1)C(OC(=O)C(O)(c1ccccc1)c1ccccc1)C2 (stereo not drawn)
  -9.7%&-0.4%	-10.4%&-13.6%
#93 Cc1cc(C)c(Cn2c(C(O)c3ccccc3)nc3ccccc32)c(C)c1 (stereo not drawn)
  -21.1%	-10.5%
#94 O=Cc1cn(-c2ccccc2)nc1-c1cccc([N+](=O)[O-])c1
  -15.9%	-12.5%
#95 Cc1ccc(CNCc2ccccc2)s1
  -13.4%	-0.9%
#96 CC(=O)Nc1ccc(SCC(=O)N(C)C2CCS(=O)(=O)C2)cc1 (stereo not drawn)
  -6.3%	i
#97 Clc1ccc(C2CSc3c4ncnc-4ncn32)cc1 (stereo not drawn)
  -10.3%	-6.4%
#98 Cc1cccc(-n2ncc3c(N4CCC5(CC4)OCCO5)ncnc32)c1
  -25.8%	i
#99 COc1ccc2nc(NC(=O)CS(=O)(=O)Cc3ccccc3)sc2c1
  -22.8%	?
#100 CN(Cc1ccccc1)C(=O)c1ccc(Nc2nc(C(N)Cc3ccccc3)cs2)nc1 (stereo not drawn)
  -10.9%	-18.3%
#101 CSCCC(NC(=O)c1cccc([N+](=O)[O-])c1)C(=O)O (stereo not drawn)
  -3.3%	-13.7%
#102 O=C(Nc1ccc(N2CCOCC2)c(S(=O)(=O)Nc2ccccc2Cl)c1)c1ccc(F)cc1
  -21.3%	-12.2%
#103 Cc1ccc(S(=O)(=O)NC(=O)C2(C)CCN2C(=O)CC2CCCC2)cc1 (stereo not drawn)
  -4.0%	i

One compound at a time, as listed above. Values in the order: VACV Venus inh	VACV mCherry inh
`NS(=O)(=O)c1ccc(CCNC(=O)CCNS(=O)(=O)c2ccccc2C(F)(F)F)cc1` in the list: -7.3%	i
`O=C(Nc1ccc(N2CCOCC2)c(S(=O)(=O)Nc2ccccc2Cl)c1)c1ccc(F)cc1` in the list: -21.3%	-12.2%
`Cc1ccc(S(=O)(=O)NC(=O)C2(C)CCN2C(=O)CC2CCCC2)cc1` (stereo not drawn) in the list: -4.0%	i
